# Bioassay records: PubChem, Broad Institute
# A1 inhib – inhibitors of A1; caspase activation, % (test concentration not listed); hit rate 0.51% among 21,000; MEF A1-2A-BIM cells, caspase-Glo luminescence, 3 h; percent of clofoctol signal, DMSO as zero;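 active = most replicate scores above 10, or exactly half above 10 with mean activity above 10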;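 also: effector caspase 3 and 7 activity cleaving a DEVD luciferin substrate; 50 nL library stock added to about 30 µL; numbers are from one replicate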
# BJeLR viability – BJeLR cell viability reduction | BJeLR fibroblasts viability, CellTiterGlo ATP luminescence, 48 h; HRASV12, hTERT and SV40 LT/ST transformed | viability loss activity score, % (test concentration not listed) | hit rate 0.64% among 30,000; in the data active = viability loss activity score above about 50%; about a fifth of its hits are not listed in these tables;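 also: higher score means fewer live cells and less ATP luminescence; stock transfer was 50 or 100 nL into about 30 µL; 0% = vehicle wells and 100% = a reference killing control; one replicate is shown; the record names a cut of 85%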
# * = called active by the depositor; nt = no result given. The list is partial; count on the stated rates, not on these rows.
Compound	A1 inhib	BJeLR viability
C[C@@H]1O[C@@H](O[C@H]2[C@H](OC(=O)[C@]34CCC(C)(C)C[C@H]3C3=CCC5[C@@]6(C)C[C@H](O)[C@H](O[C@@H]7O[C@H](CO)[C@@H](O)[C@H](O)[C@H]7O)[C@@](C)(CO)C6[C@H](O)C[C@@]5(C)[C@]3(C)CC4)OC[C@H](O)[C@@H]2O)[C@H](O)[C@H](O)[C@H]1O[C@@H]1OC[C@@H](O)[C@H](O[C@@H]2OC[C@](O)(CO)[C@H]2O)[C@H]1O (stereo not given in full)	0.5	-1.7
O=C(C1CCCN(Cc2cccc(Cl)c2)C1)N1CCCCCC1 (stereo not given)	-0.2	3.8
CCN(C(=O)c1cc2c(=O)n3cccc(C)c3nc2s1)c1ccc(OC)cc1	nt	-2.3
CCn1cc(C(=O)NC2CCCCCC2)c(=O)c2ccc(C)nc21	0.1	0.7
S=C(NC1CCCCC1)C(=S)NC1CCCCC1	-0.6	0.1
C[C@@H]1CN([C@@H](C)CO)C(=O)c2cc(NS(=O)(=O)c3cn(C)cn3)ccc2O[C@H]1CN(C)Cc1ccc(C(=O)O)cc1	-0.5	-9.2
CCC(C)c1ccc(NC(=S)NC(=O)c2ccco2)cc1 (stereo not given)	-1.3	0.2
CCOC(=O)c1cnn2c(C(F)(F)F)cc(C)nc12	0.5	-2.8
Cn1c(=O)cc(SCC(=O)NC2CCCCC2)c2ccccc21	nt	-4.1
O=C(CSc1nc2c(c(=O)[nH]1)CCC2)N1CCCCCC1	nt	5.6
C[C@@H]1CN([C@H](C)CO)C(=O)c2cc(NS(=O)(=O)c3ccc(Cl)cc3)ccc2O[C@H]1CN(C)S(C)(=O)=O	1.0	4.4
COc1ccc(CNC(=O)C2CC(=O)N=C(N)S2)cc1 (stereo not given)	nt	0.1
O=C(NCSc1nc2ccccc2s1)c1ccco1	0.6	-2.2
C[C@H](CO)N1C[C@H](C)[C@@H](CN(C)C(=O)Nc2cccc3ccccc23)Oc2c(NC(=O)Nc3ccccc3)cccc2C1=O	nt	2.3
CCc1ccc(C2C(C(=O)OC)=CNC=C2C(=O)OC)cc1	-0.2	-3.4
C[C@@H]1CN([C@@H](C)CO)C(=O)c2cc(NC(=O)C3CCCCC3)ccc2O[C@@H]1CN(C)Cc1ccccc1	-0.2	-3.1
Cc1cc2c(cc1S(=O)(=O)NCCN1CCN(c3ccccc3F)CC1)OCC(=O)N2	-0.2	2.0
COc1ccc(C(=O)CSc2nc3c([nH]2)c(=O)n(C)c(=O)n3C)cc1	-0.1	-0.8
CC(C)NC(=O)Nc1ccc2c(c1)C(=O)N([C@@H](C)CO)C[C@@H](C)[C@@H](CN(C)Cc1ccc(C(=O)O)cc1)O2	-0.6	3.8
CCOc1ccc(CC(=O)NC2CC(C)(C)N(C)C(C)(C)C2)cc1OCC	0.3	-2.3
Cc1ccc(-n2ncc(N(C)N3CC(C)(C)C3=O)c(Cl)c2=O)cc1	1.1	-1.1
N#Cc1c(OCC(F)(F)F)ccc(SCc2ccccc2)c1OCC(F)(F)F	0.5	1.4
CC(=O)n1c(C=Nc2ccccc2)c(O)c2ccccc21	nt	1.0
C[C@H](CO)N1C[C@H](C)[C@@H](CN(C)Cc2ccc(-c3ccccc3)cc2)Oc2c(NS(=O)(=O)c3ccc(Cl)cc3)cccc2C1=O	nt	1.7
C[C@H](CO)N1C[C@H](C)[C@@H](CN(C)Cc2ccc3c(c2)OCO3)Oc2c(NS(C)(=O)=O)cccc2C1=O	nt	-4.3
COc1ccc(S(=O)(=O)Nc2ccc3c(c2)C(=O)N([C@@H](C)CO)C[C@H](C)[C@@H](CN(C)C(=O)NC(C)C)O3)cc1	0.1	-3.1
COc1ccc(S(=O)(=O)Nc2cccc3c2O[C@@H](CN(C)C(=O)Nc2ccc(F)cc2)[C@H](C)CN([C@@H](C)CO)C3=O)cc1	nt	1.0
CC1CCCCN1C(=O)c1cc2nc(-c3ccc(Cl)cc3)cc(C(F)(F)F)n2n1 (stereo not given)	-0.2	-2.3
C[C@@H]1CN([C@@H](C)CO)C(=O)c2cccc(NS(=O)(=O)c3cccs3)c2O[C@@H]1CN(C)Cc1ccc(Oc2ccccc2)cc1	nt	-1.1
CS(=O)(=N/C=C(\C#N)S(=O)(=O)c1ccc(C(F)(F)F)cn1)c1ccc(Cl)cc1 (stereo not given)	-0.3	-0.8
CC(C(=O)NCc1cccs1)n1ncn2cccc2c1=O (stereo not given)	-0.1	8.2
CC(=O)OCC/C(=C\CC1(O)C(C)CCC2C(C)(C)CCCC21C)COC(C)=O (stereo not given)	0.0	-0.1
O=C(NCc1cccc2ccccc12)c1ccc2c3c(cccc13)CC2	0.0	0.8
C[C@@H]1CN([C@H](C)CO)C(=O)c2cc(NC(=O)Nc3ccc4c(c3)OCO4)ccc2O[C@H]1CN(C)S(=O)(=O)c1ccc(Cl)cc1	-0.7	1.0
C[C@@H]1CN([C@H](C)CO)C(=O)c2cccc(NC(=O)Nc3cccc4ccccc34)c2O[C@@H]1CN(C)C(=O)Nc1ccccc1	nt	-13
C[C@H](CO)N1C[C@H](C)[C@@H](CN(C)Cc2ccncc2)Oc2c(NS(=O)(=O)c3ccccc3)cccc2C1=O	nt	-9.0
Cc1cccc(N(C)S(=O)(=O)c2ccc3c(c2)n(C)c(=O)c(=O)n3C)c1	nt	9.0
COc1ccccc1CNC(=O)CCS(=O)(=O)c1cccc2nonc12	nt	-2.0
Cc1ccc(S(=O)(=O)N(C)C[C@H]2Oc3c(NS(=O)(=O)c4ccc(Cl)cc4)cccc3C(=O)N([C@H](C)CO)C[C@@H]2C)cc1	nt	-0.6
Cn1cnnc1Sc1cc(C#N)c(C#N)cc1Sc1nncn1C	-0.5	0.3
Nc1ccccc1Nc1c(N)c(=O)oc2ccccc12	-1.4	1.7
COc1ccc(S(=O)(=O)Nc2ccc3c(c2)C(=O)N([C@@H](C)CO)C[C@H](C)[C@@H](CN(C)C(=O)NC2CCCCC2)O3)cc1	-0.5	-0.7
C[C@@H]1CN([C@H](C)CO)C(=O)c2cccc(NC(=O)c3nc4ccccc4s3)c2O[C@H]1CN(C)C(=O)Nc1ccc2c(c1)OCO2	nt	-7.6
NC(=S)N1C(c2ccccc2)CCN1c1ccccc1 (stereo not given)	0.6	1.5
Cc1cccc(NC(=O)CSc2cn(CCNC(=O)c3ccc(F)cc3)c3ccccc23)c1C	1.9	-0.8
CCCCc1ccc(Nc2ncnc3c2cnn3-c2ccccc2)cc1	0.0	-1.4
S=C(NCc1cccnc1)c1ccccc1	-0.3	11
Cc1ccc(S(=O)(=O)N(CC(=O)Nc2ccc3c(c2)OCCO3)C2CCCCC2)cc1	1.2	-4.4
O=C(NC1CCCC1)c1ccc(CS(=O)(=O)c2cccc(C(F)(F)F)c2)o1	nt	0.8
CC(C)(C)NC(=O)[C@H]1C[C@H]2CCCC[C@H]2CN1C(=O)C12CC3CC(CC(C3)C1)C2	0.3	-0.9

# Some of these compounds in order of the A1 inhib value, low to high.
molecule | A1 inhib
C[C@@H]1CN([C@@H](C)CO)C(=O)c2cc(NC(=O)C3CCCCC3)ccc2O[C@@H]1CN(C)Cc1ccccc1 | -0.2
O=C(NCSc1nc2ccccc2s1)c1ccco1 | 0.6
Cc1ccc(S(=O)(=O)N(CC(=O)Nc2ccc3c(c2)OCCO3)C2CCCCC2)cc1 | 1.2

# Other results
Compound	A1 inhib	BJeLR viability
C[C@@H]1CN([C@@H](C)CO)C(=O)c2cc(N(C)C)ccc2O[C@H]1CN(C)Cc1ccc(C(=O)Nc2ccccc2N)cc1	nt	16
O=C1c2ccccc2C(=O)c2c1oc(-c1ccccc1)c2C(=O)c1ccccc1	-0.3	1.6
CCCCn1c(CSc2ccccn2)cn(-c2nnc(C(C)(C)C)s2)c1=O	0.3	15
Cc1ccc(S(=O)(=O)Nc2cccc3c2O[C@@H](CN(C)S(=O)(=O)c2ccc(Cl)cc2)[C@H](C)CN([C@H](C)CO)C3=O)cc1	nt	4.0
CCOc1cc(C2N3CCc4ccccc4C3CN2S(=O)(=O)c2ccc(C)cc2)ccc1OC (stereo not given)	0.6	1.9
Cc1nc(-c2cc(C#N)c(Oc3ccc(C(F)(F)F)cc3)nc2C)cs1	-0.4	-11
O=C(CN1C(=O)C2C3C=CC(C3)C2C1=O)Nc1ccc2ncccc2c1 (stereo not given)	-0.7	2.3
COc1ccc(CN(C)C[C@H]2Oc3c(NC(=O)Nc4ccc5c(c4)OCO5)cccc3C(=O)N([C@H](C)CO)C[C@@H]2C)cc1	nt	-3.0
Cc1ccc(S(=O)(=O)n2nc(-n3c(C)ccc3C)c3c(F)cccc32)c2ccccc12	nt	-1.6
CN1CCN(Cc2c(O)ccc3c(=O)c(-c4ccc(Cl)cc4Cl)c(C(F)(F)F)oc23)CC1	0.0	4.4

# Compounds listed so far containing an NH in an aromatic ring (two):
Compound	A1 inhib	BJeLR viability
O=C(CSc1nc2c(c(=O)[nH]1)CCC2)N1CCCCCC1	nt	5.6
COc1ccc(C(=O)CSc2nc3c([nH]2)c(=O)n(C)c(=O)n3C)cc1	-0.1	-0.8

# Remaining list, next part:
Compound	A1 inhib	BJeLR viability
CN1C(=O)C(Cc2ccccc2)(Cc2ccccc2)c2ccccc21	-0.5	6.7
Cc1cc(Br)c(S(=O)(=O)C(C)(C)C)c(Br)c1	0.5	-2.8
COc1ccccc1Nc1nc(C2(C)CCC(=O)O2)cs1 (stereo not given)	-0.5	0.6
O=C(O)COc1ccc(/C=C2\SC(=O)N(Cc3ccc(F)cc3)C2=O)cc1	-0.7	-4.5
COc1ccc(NC(=O)Nc2cccc3c2O[C@@H](CN(C)S(=O)(=O)c2ccccc2)[C@@H](C)CN([C@H](C)CO)C3=O)cc1	nt	-5.5
C[C@@H]1CN([C@H](C)CO)C(=O)c2cc(NC(=O)Cc3cn(C)c4ccccc34)ccc2O[C@@H]1CN(C)C(=O)Nc1ccc2c(c1)OCO2	-0.2	-4.2
C[C@@H]1CN([C@@H](C)CO)C(=O)c2cc(NC(=O)Cc3cn(C)c4ccccc34)ccc2O[C@H]1CN(C)Cc1ccncc1	0.8	2.8
CCC(C(=O)NC1CCCCC1)n1c(C(=O)OC)cc2sc(Cl)cc21 (stereo not given)	-0.3	5.0
C=CCn1c(Cc2c[nH]c3ccccc23)nnc1SCC(=O)Nc1ccc(OC)cc1	nt	3.4
Cc1noc(C)c1S(=O)(=O)Nc1ccc2c(c1)C(=O)N([C@@H](C)CO)C[C@H](C)[C@H](CN(C)C(=O)Nc1ccc(C(F)(F)F)cc1)O2	-0.3	-1.1
Cc1ccc(S(=O)(=O)Nc2ccc3c(c2)C(=O)N([C@H](C)CO)C[C@H](C)[C@@H](CN(C)Cc2ccccc2)O3)cc1	0.9	1.6
C/C(=N\O)c1cc(Cl)cc(Cl)c1O	0.1	1.4
CCOC(=O)C1CCN(C(=O)c2cnn(-c3ccccc3)c2-n2cccc2)CC1	-1.3	5.9
CCOC(=O)C(C)N1c2cccc3cccc(c23)S1(=O)=O (stereo not given)	-0.1	-1.4
CN(CC(=O)Nc1ccc(F)cc1F)S(=O)(=O)c1ccc2c(c1)c(=O)n(C)c(=O)n2C	nt	-3.5
COc1ccc(Cn2c3ccccc3c3nc4ccccc4nc32)cc1	-4.6	-1.6
CCc1ccc(C(=O)Cc2cc3cccc(OC)c3oc2=O)cc1	-1.4	-0.6
COc1ccc(S(=O)(=O)Nc2cccc3c2O[C@H](CN(C)S(=O)(=O)c2ccc(OC)cc2)[C@@H](C)CN([C@@H](C)CO)C3=O)cc1	nt	4.0
Cc1ccc(-c2[nH]c3ccccc3c2SCCNC(=O)c2ccncc2)cc1	nt	5.7
Cc1c(CC(=O)NN)sc2ccc(Cl)cc12	-0.2	5.7
Cc1noc(C)c1NC(=O)N(C)C[C@@H]1Oc2c(NC(=O)C3CCCCC3)cccc2C(=O)N([C@@H](C)CO)C[C@H]1C	nt	-2.6
C[C@@H]1CN([C@@H](C)CO)C(=O)c2cc(NC(=O)CCN3CCOCC3)ccc2O[C@@H]1CN(C)Cc1ccc(C(F)(F)F)cc1	0.3	3.1
O=c1cc(-c2ccccc2)ss1	-1.8	0.8
Cc1ccc(S(=O)(=O)Nc2ccc3c(c2)C(=O)N([C@H](C)CO)C[C@@H](C)[C@@H](CN(C)Cc2ccc(C(=O)Nc4ccccc4N)cc2)O3)cc1	nt	20
COc1ccc(NC(=O)Nc2ccc3c(c2)C(=O)N([C@@H](C)CO)C[C@@H](C)[C@@H](CN(C)Cc2ccc(C(F)(F)F)cc2)O3)cc1	0.1	-5.6
C[C@H]1CN([C@@H](C)CO)C(=O)c2cccc(NC(=O)NC3CCCCC3)c2O[C@@H]1CN(C)CC1CCCCC1	nt	-3.0
CCOC(=O)CSc1nc2ccc(Br)cc2c2nc3ccccc3n12	0.2	-4.5
COc1ccc(Cn2c(=O)oc3ccccc32)cc1	nt	-1.7
COc1ccc(S(=O)(=O)N(C)C[C@H]2Oc3c(NS(=O)(=O)c4ccc(C)cc4)cccc3C(=O)N([C@H](C)CO)C[C@H]2C)cc1	nt	-0.1
C[C@@H]1CN([C@@H](C)CO)C(=O)c2cc(NC(=O)CCCN(C)C)ccc2O[C@@H]1CN(C)S(=O)(=O)c1ccc(Cl)cc1	0.1	3.8
Cc1noc(C)c1S(=O)(=O)Nc1ccc2c(c1)C(=O)N([C@@H](C)CO)C[C@@H](C)[C@@H](CN(C)C)O2	-0.1	-6.0
C=CC(C)(O)CCC1(C)C2=C(C(OC(C)=O)C(OC(C)=O)C1C)C(C)(C)CCC2 (stereo not given)	0.2	0.9
